Bioassay records (PubChem BioAssay)
NPYLR7 ag: agonists of mosquito NPYLR7 receptor, primary screen, cell-based, Aedes aegypti, calcium fluorescence, mosquito biting behavior; Aedes aegypti neuropeptide Y-like receptor 7 (NPYLR7); activation, % at 10 µM; 270,000 tested, 0.15% active; HEK293T NPYLR7/Galpha15, GCaMP6s calcium fluorescence; in the data active = activation above about 40%;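 note: 0% = vehicle and 100% = reference agonist at the receptor; some compounds past the cut are filed as inactive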
NPYLR7 ag max-min: recorded beside NPYLR7 ag, whose call it bears; activation, %; measured here: Max-Min RFU normalised activation; some inactives read as strong as hits;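 span of the calcium signal over five minutes; 0% = vehicle and 100% = native peptide agonist; compound fluorescence can raise it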
Numbers without * were called inactive. Only part of the results is shown. The share of hits here may be higher or lower than overall.

Screens in order – NPYLR7 ag | NPYLR7 ag max-min
> O=C1/C(=C/c2ccc(-c3ccc(Cl)c(Cl)c3)o2)C=C(c2ccccc2)N1c1ccccc1O
 : -2 | -1
> COc1ccc(CC2CCN(S(=O)(=O)c3ccc(Cl)cc3OC)CC2)cc1
 : 1 | 2
> Cc1cn2c3c(=O)n(C)c(=O)n(C)c3nc2n1-c1ccccc1OCCCO
 : 1 | 20
> CC(C)Cc1cc(C(=O)N(Cc2ccccn2)CC2CCCO2)n(C)n1 (stereo not drawn)
 : -7 | -7
> CCOC(=O)c1ccc2c(c1)nc(SCc1cccc3cccnc13)n2Cc1ccccc1
 : 1 | -3
> Cc1nc(=O)[nH]c(C)c1CCC(=O)N1CCc2c(ncnc2N(C)C)C1
 : 6 | 5
> CCOc1ccc(NC(=O)CSc2nc(=O)n3ccccc3n2)cc1
 : 1 | 0
> COc1cc(=O)n(-c2ccccc2C)nc1C(=O)Nc1ccc(C)c(C)c1
 : 5 | 4
> COc1cc2c(cc1NC(=O)COC(=O)c1cc(OC)c(OC)cc1OC)oc1ccccc12
 : 6 | 5
> Cc1cc(C(=O)Cn2cc(C(F)(F)F)ccc2=O)c(C)n1C1CC1
 : 15 | 12
> CCCCCCCCCCCCCCCC(=O)OC(CC(=O)O)C[N+](C)(C)C (stereo not drawn)
 : 2 | -32
> O=C(NCc1cccnc1N1CCOCC1)c1ccc(C2CCCN2)s1 (stereo not drawn)
 : 2 | -1
> CCOCC1CCN(C(=O)Nc2ccc3c(c2)CCCN3C)C1 (stereo not drawn)
 : -22 | -22
> Brc1cccc(N2CCC(CNc3ncccn3)C2)c1 (stereo not drawn)
 : -5 | -3
> Cc1cc(N)nc(SCC(=O)Nc2cccc(Br)c2)n1
 : 10 | 3
> CCCS(=O)(=O)N1CCN(c2ncccc2C(=O)NCc2ccc(OC)cc2)CC1
 : 17 | 16
> O=C(c1ccc2c(=O)[nH]c(=S)[nH]c2c1)N1CCCC1Cc1ccccc1 (stereo not drawn)
 : 2 | -1
> CN1C(=O)C(=Cc2cc([N+](=O)[O-])ccc2N(C)C)C(=O)N(C)C1=O
 : -14 | -22
> COCCN(CC(=O)Nc1nc(CC(=O)NCc2ccncc2)cs1)C(=O)c1ccc(Cl)cc1Cl
 : -4 | -2
> Cc1cc(COc2ccccc2)oc1C(=O)N1CCCC(O)(CO)CC1 (stereo not drawn)
 : 8 | 4
> COc1ccc(C)cc1CNc1ccc(C(N)=O)c(C)c1
 : -1 | 7
> Cc1nc(-c2cccs2)sc1-c1ccc(SCC(=O)N2CCCCC2)nn1
 : 1 | -4
> Cc1cccc(N2CCn3c2nc2c3c(=O)[nH]c(=O)n2C)c1C
 : 0 | -3
> COCCCN(CC(=O)N(Cc1cccn1Cc1ccccc1)C1CCCCC1)C(=O)c1ccc(Br)cc1
 : -2 | 5
> Cc1ccc(C(=O)CSc2nc3ccccc3c(=O)[nH]2)cc1
 : 4 | 6
> Cc1cccc(CN2CCC(CO)(Cc3ccccc3)CC2)c1
 : 2 | -1
> OC(CNC12CC3CC(CC(C3)C1)C2)COc1ccc(Cl)cc1Cl (stereo not drawn)
 : -5 | 0
> CSCCC1Nc2ccc(S(=O)(=O)N3CCOCC3)cc2NC1=O (stereo not drawn)
 : 1 | -1
> CCc1nc2n(n1)C(=O)C(C(c1cccc(C(F)(F)F)c1)N1CCN(C(C)=O)CC1)S2 (stereo not drawn)
 : -5 | -10
> Cc1cn2cc(CNC(=O)CCCn3nnnc3CN3CCC(C)CC3)nc2s1
 : 13 | 8
> CCCCNC(=O)C1(C)CCCCN1CC(=O)c1ccc(OC)cc1 (stereo not drawn)
 : 6 | 3
> CCOc1ccc(-n2nnc(C(=O)OC)c2C(=O)OC)cc1
 : 6 | 9
> O=C(O)c1cc(Br)c2ccccc2c1O
 : -6 | -8
> O=C(Nc1nc2c(s1)CN(Cc1ccccc1)CC2)C1CCC1
 : 1 | -1
> COCCNC(=O)Cn1nc(C2CC2)c2cnn(-c3cccc(Cl)c3)c2c1=O
 : 5 | 0
> CCCCN1CCN(C(=O)c2cn(CCOC)cc3c(=O)n(-c4ccccc4)nc2-3)CC1
 : -4 | -10
> CC(=O)n1c2c(c3ccccc31)OC(=N)C(C#N)C2c1cccc(F)c1 (stereo not drawn)
 : -4 | -9
> Cn1c(=S)[nH]c2sc3c(c2c1=O)CCC3
 : -3 | -3
> CN(C)CC1(O)CCCN(C(=O)c2cccc(OCC(N)=O)c2)C1 (stereo not drawn)
 : -1 | -1
> O=C(CC12CC3CC(CC(C3)C1)C2)NNC(=O)C1CCCCC1
 : 0 | -1
> Cc1c(NC(=O)C(=O)c2ccco2)cccc1C(=O)NC1CCCCC1
 : -1 | -7
> Cc1ccc(CSc2nc(=O)n(CCO)c3c2CCC3)cc1
 : -4 | -14
> O=C(CC1C=CCC1)NN1C(=O)NC(c2ccccc2)(c2ccccc2)C1=O (stereo not drawn)
 : 4 | 5
> Cc1nc2ccccc2nc1CN(C)Cc1cnn(-c2ccccc2)c1
 : 0 | -9
> Cc1ccc2c(c1)CCCN2C(=O)c1cnc2c(c1)c(=O)n(C)c(=O)n2C
 : 6 | 7
> CC(C)CC(=O)N1CCC(Oc2ccc(C(=O)NCCN(C)C)cc2Cl)CC1
 : 6 | 6
> N#Cc1ccc(CC(C#N)(Cc2ccc(C#N)cc2)c2nnc3n2CCCCC3)cc1
 : 5 | 8
> Cc1ccc(NC(=O)CN2C(=O)c3ccccc3C2=O)c(C(=O)O)c1
 : -7 | -11
> CC(=O)O[C@H]1[C@H](NC(=O)Cc2cccs2)[C@H]2O[C@@H]1c1ccccc12
 : 3 | 4
> COc1ccccc1-n1c(-c2ccc(Cl)cc2)cc(C(=O)NC2CC2)c1C
 : 17 | 14
> COc1ccc(F)c(-c2nc(Cn3c(CO)nc4ccccc43)c(C)o2)c1
 : 5 | 3
> CCCCn1c(=O)c2c(nc3n2CC(C)=NN3CCCO)n(C)c1=O
 : 5 | 10
> Cc1ccc2c(c1)C(=O)NC1(CCN(Cc3ccccc3F)CC1)N2
 : 20 | 16
> CN1CCC(CNC(=O)c2cc3c(Cl)cccc3n2C)C1 (stereo not drawn)
 : 10 | 6
> O=C(NCCc1ccccn1)c1csc(COc2ccc([N+](=O)[O-])cc2)n1
 : -2 | 8
> C=c1occc1=C1NN=C(SCC(=O)c2[nH]c(C)c(C(C)=O)c2C)O1
 : 8 | 6
> Cc1cc(C)nc(Sc2ccc([N+](=O)[O-])cn2)n1
 : 6 | 7
> Cc1ccc(-c2nn3c(-c4cc(C(C)C)[nH]n4)nnc3s2)cn1
 : -12 | -21
> CCCCOCCOCC(=O)N1CCC(n2nc(C(=O)OCC)cc2C(C)(C)C)CC1
 : 0 | 1
> Nc1c(-c2nc(-c3ccc(F)cc3)cs2)c2ccccn2c1C(=O)c1ccc2c(c1)OCO2
 : -1 | 1

Nothing new here: entries from further up.
Screens in order – NPYLR7 ag | NPYLR7 ag max-min
> CCCCOCCOCC(=O)N1CCC(n2nc(C(=O)OCC)cc2C(C)(C)C)CC1
 : 0 | 1
> Nc1c(-c2nc(-c3ccc(F)cc3)cs2)c2ccccn2c1C(=O)c1ccc2c(c1)OCO2
 : -1 | 1

Next part:
Screens in order – NPYLR7 ag | NPYLR7 ag max-min
> c1nc(NCCc2noc(C3CC3)n2)cc(N2CCCCC2)n1
 : 3 | 0
> CN(CCNC(=O)c1cccc2c1NCCC2)S(C)(=O)=O
 : 9 | 5
> CNS(=O)(=O)c1ccc(CN2CCCOc3c(cccc3OC)C2)cc1
 : 0 | -4
> CCCCN(C)S(=O)(=O)NC1CCN(c2cccc(F)c2)CC1
 : 12 | 8
> CC(C)(C)c1ccc2c(c1)CC(CNC(=O)C1CCCCC1)O2 (stereo not drawn)
 : 1 | 0
> COc1cccc(-c2nnc(SCc3nc(C(=O)N4CCN(Cc5ccccc5)CC4)cs3)n2-c2ccccc2)c1
 : -3 | 5
> CCCCN(C)S(=O)(=O)c1ccc2c(c1)nc(SCc1cc(OC)cc(OC)c1)n2C1CCCC1
 : 4 | 2
> CN(Cc1nc2ccccc2n1C)C(=O)C(C)(C)NC(=O)c1cccs1
 : -1 | 0
> COCCN(Cc1cccn1Cc1ccc(F)cc1)CC(C)O (stereo not drawn)
 : -1 | 5
> O=S(=O)(N1CCCCC1)N1CCN(Cc2ccccc2)C2(CCCCC2)C1
 : 3 | 59
> FC(F)(F)c1ccc(C2c3cccn3CCCN2Cc2cccc(Oc3ccccc3)c2)cc1 (stereo not drawn)
 : 20 | 18
> COc1ccc(-c2csc(-n3[nH]c(C)c(N=Nc4ccccc4C(=O)O)c3=O)n2)cc1
 : 13 | 22
> COc1ccc(CCNC(=O)c2cc3ccccc3oc2=O)cc1OC
 : -1 | -5
> CCOCCCn1c(SCC(=O)NCc2ccccn2)nc2cc(C(=O)OCC)ccc21
 : 2 | -4
> O=[N+]([O-])c1ccccc1/C=C/C=N\Nc1nc(N2CCOCC2)nc(N2CCOCC2)n1
 : -4 | -7
> CN(Cc1ccccc1)CC(O)CN1C(=O)NC2(CCCCCC2)C1=O (stereo not drawn)
 : 0 | -2
> O=C(c1cccc(F)c1)N(Cc1nccn1Cc1ccc(F)c(F)c1)CC1CCCO1 (stereo not drawn)
 : 5 | 10
> NCCc1nc(NCc2cn[nH]c2-c2cccs2)c2ccccc2n1
 : 23 | 7
> CCC1=NN(C(=O)Cc2ccc([N+](=O)[O-])cc2)C(O)(c2ccc(Br)cc2)C1 (stereo not drawn)
 : -10 | -14
> COc1ccc(C(CNC(=O)c2cc(C3CC3)nc3c2c(C)nn3C)N2CCOCC2)cc1 (stereo not drawn)
 : 1 | 3
> Cc1cc(C(F)(F)F)c2c(C)nn(-c3ccc([N+](=O)[O-])cc3)c2n1
 : 2 | 0
> O=C1OC(c2ccccc2)=NC1=Cc1cccc(Oc2ccccc2)c1
 : -5 | -2
> Cc1ncsc1CCn1ccnc1-c1cc2ccccc2n(C)c1=O
 : 4 | -1
> Cc1nc(CN2CCC(c3cc(C(C)C)n[nH]3)CC2)c2ccccn12
 : 8 | -4
> COc1ccccc1OCc1nc(CN(CC(C)C)C(=O)c2ccccc2F)cs1
 : 9 | 12
> Cc1cc(Oc2cccc(F)c2)nc(SCc2cccc([N+](=O)[O-])c2)n1
 : -6 | -6
> COc1ccc(-c2cc(C(=O)N3CCC(C(N)=O)CC3)n3nc(C(C)(C)C)cc3n2)cc1
 : 18 | 31
> O=C(c1cn(C/C=C/c2ccccc2)nn1)N1CCN(Cc2cccs2)CC1
 : 15 | 7
> O=C(C1=NN(Cc2nc(C3CC3)no2)c2ccccc2S1(=O)=O)N1CCCC1
 : -9 | -11
> CCOC(=O)c1c(C)[nH]c(C(=O)OCC(=O)N(C)Cc2ccc3cc(OC)ccc3c2)c1C
 : 30 | 19

Profiles as entered above.
O=C(C1=NN(Cc2nc(C3CC3)no2)c2ccccc2S1(=O)=O)N1CCCC1 reads NPYLR7 ag: -9; NPYLR7 ag max-min: -11
COc1ccc(C(CNC(=O)c2cc(C3CC3)nc3c2c(C)nn3C)N2CCOCC2)cc1 (stereo not drawn) reads NPYLR7 ag: 1; NPYLR7 ag max-min: 3

(continued)
Screens in order – NPYLR7 ag | NPYLR7 ag max-min
> Cc1ccc(N2CCN(C(=O)c3ccc([N+](=O)[O-])c(C)c3)CC2)c(C)c1
 : 4 | 7
> Fc1cccc(NC2CCCN(Cc3cnc(N4CCCC4)s3)C2)c1 (stereo not drawn)
 : 1 | -9
> CC(C)CC(=O)N1CCC(NC(=O)c2ccc(-c3ccccc3)[nH]2)CC1
 : 13 | 11
> CN(Cc1ccccc1)Cc1nc2c(c(=O)n(C)c(=O)n2C)n1Cc1ccccc1F
 : -17 | -18
> C=CCN(C(=O)CCNC(=O)c1ccccc1F)C1CCCC1
 : 5 | -5
> CC(=O)c1c(C)nc(-c2ccc(Cl)c(Cl)c2)n1O
 : 20 | 10
> CCOC(=O)Cn1c(=NC(=O)c2ccn(C)n2)sc2cc(F)cc(F)c21
 : 4 | 12
> O=C1CCCN1CC1CCCN(Cc2ccc3cccc(O)c3n2)C1 (stereo not drawn)
 : 17 | 11
> O=C(c1cccs1)C(Br)C(Br)c1ccc([N+](=O)[O-])cc1 (stereo not drawn)
 : 3 | 0
> O=C(COC(=O)c1ccc[nH]1)Nc1c(F)cccc1F
 : 2 | 1
> CCS(=O)c1ccccc1C(=O)Nc1ccncc1 (stereo not drawn)
 : 4 | 5
> CN(Cc1ccc(F)cc1F)C(=O)c1ccc(NC(=O)OC(C)(C)C)cc1
 : 12 | 5
> O=C(Cn1cnc([N+](=O)[O-])n1)Nc1cc(Sc2ccc(Br)cc2)cc([N+](=O)[O-])c1
 : -12 | -18
> CCCC1SCCN1C(=O)c1cccc(NS(=O)(=O)c2cccs2)c1 (stereo not drawn)
 : 2 | -1
> COc1cccc(CO[C@]2(C(=O)NCC3CCCO3)CC(OCc3ccccc3C#N)[C@H](O)[C@H](O)C2)c1 (stereo partly drawn)
 : 18 | 22
> CCc1cccc(C)c1Nc1n[nH]c(=S)s1
 : 3 | 1
> COc1ccc(S(=O)(=O)Nc2ccc(Nc3ccc(-n4ccc(C)n4)nn3)cc2)cc1C
 : -3 | -10
> O=S(=O)(c1ccccc1)N1C2C=CC(C2)C1(C(F)(F)F)C(F)(F)Cl (stereo not drawn)
 : -1 | 40
> COc1c(C)cnc(CN(C)C(=O)c2cn[nH]n2)c1C
 : 0 | -2
> CS(=O)(=O)NCC1CCCN(S(=O)(=O)c2ccc3c(c2)CCC3)C1 (stereo not drawn)
 : 0 | 0
> CC(CC(=O)N1CC(=O)N2CCc3c(F)cccc3C2C1)CC(C)(C)C (stereo not drawn)
 : -4 | 9
> O=C(C1CCN(S(=O)(=O)c2ccccc2C(F)(F)F)CC1)N(Cc1ccccc1F)C1CC1
 : -7 | -10
> COc1ccc(-n2ccc3c(cnc4ncnn43)c2=O)cc1
 : 5 | 3
> N#CC1CC(=O)N(c2ccc(F)c(F)c2)C1=N (stereo not drawn)
 : 3 | 1
> COCCCNC(=O)c1cc(NC(=O)COc2ccc(Cl)cc2)ccc1N1CCCC1
 : 3 | 20
> COc1cc(CNc2nn[nH]n2)cc(Cl)c1OCc1ccccc1
 : -11 | -15
